High-throughput results as filed in PubChem BioAssay.
TRPML1 blocker: blocks the human TRPML1 channel. 390,000 tested, 0.02% active. activity change, negative = inhibition, % (no concentration beside the values). TRPML1-inducible cells, Ca2+ dye fluorescence, FDSS; stronger effect = lower value; inhibition of EC80 agonist-evoked calcium signal. AID 624415; in the data active means activity change below about -50%; inconclusive means about -30% to -50%; inactive means above about -30%;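 note: stimulus is agonist 54-4 at its EC80 concentration; % is set by controls: 0 for no effect and ±100 for the full control effect; compound concentration not given in the record; the text of the record puts the active cut at -80%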
Target sequence (Q9GZU1 whole entry, looked up): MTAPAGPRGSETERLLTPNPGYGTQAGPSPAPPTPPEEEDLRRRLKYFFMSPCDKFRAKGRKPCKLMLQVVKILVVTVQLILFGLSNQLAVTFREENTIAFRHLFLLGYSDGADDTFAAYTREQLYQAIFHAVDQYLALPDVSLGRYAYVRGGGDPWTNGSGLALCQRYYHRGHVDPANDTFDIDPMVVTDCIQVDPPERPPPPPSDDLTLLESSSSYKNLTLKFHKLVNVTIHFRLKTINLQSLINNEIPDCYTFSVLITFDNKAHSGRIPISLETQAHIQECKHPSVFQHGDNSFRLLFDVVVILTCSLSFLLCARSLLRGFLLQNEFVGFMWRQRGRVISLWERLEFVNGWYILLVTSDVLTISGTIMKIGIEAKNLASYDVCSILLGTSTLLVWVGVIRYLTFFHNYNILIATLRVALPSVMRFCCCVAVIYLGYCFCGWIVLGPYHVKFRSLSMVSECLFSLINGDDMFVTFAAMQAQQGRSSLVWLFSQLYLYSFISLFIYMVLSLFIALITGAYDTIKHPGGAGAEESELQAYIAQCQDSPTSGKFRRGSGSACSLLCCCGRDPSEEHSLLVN
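Calcium fluorescence in TRPML1-DL cells induced overnight with Tet: a 110 s read after compound pin addition, then a 110 s antagonist read after challenge with 54-4 at 4 uM final (EC80).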
Menin-MLL FL inh: inhibitors of human menin-MLL interaction, wild-type MLL peptide. Fluorescence polarization, fluorescein-MLL peptide displacement from menin. FP activity change, % at 61.4 µM. 290,000 tested, under 10 active. AID 1766; inconclusive = falling polarisation curve, or a change in total fluorescence; inactive = total fluorescence flat and polarisation flat or rising; no compound was filed as active; the % refers to the polarisation; negative = inhibition;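 note: % of control where 0% means no effect; inhibitors lower the polarisation; unlabelled MLL peptide was the positive control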
gsp agonist: agonists of gsp mutant (McCune-Albright syndrome); gsp mutant cells, cAMP HTRF, 30 min; control for the full effect not named in the record; 340,000 tested, 0.13% active; Potency, µM (titrated, usually from 76.9 µM), without a hit: at the highest dose activation (cAMP increase), usual class: activators; active = well fitted activation curve with a large enough effect; inconclusive = small, poorly fitted or top-dose-only effect, or another doubt; inactive = no such curve, though single readings can be large or run the other way; cell line not stated here;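 note: phosphodiesterase inhibitor Ro 20-1724 added with compounds to block cAMP breakdown; potency is the fitted concentration of half-maximal effect; nearly all actives have a fitted effect of over 60% in size; about a fifth of the inactives were tested at one dose only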
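Cells stably selected in G418 were plated at 2000/well, grown 16-24 hr, then given compounds in DMSO with the PDE inhibitor […] (300 uM solution added) for 30 min at 37C; cAMP was read by HTRF.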
ClpP mod: qHTS Assay for Activators of ClpP. ATP-dependent Clp protease proteolytic subunit (Bacillus subtilis (strain 168)), P80244. purified B. subtilis ClpP, FRET peptide cleavage, 20 min. Potency, µM (top dose mostly 57.5 µM), for inactives: at the top dose activity change, negative = active. 340,000 tested, 1.9% active. AID 651965, 2013; active = well fitted falling curve with a large enough effect; inconclusive = small, poorly fitted or top-dose-only effect; inactive = no such curve, though single readings can be large or run the other way; note: potency is the fitted concentration of half-maximal effect; the source files actives as falling curves though it sought activators and does not explain the sign; nearly all actives have a fitted effect of over 65% in size; many hits overshoot -100%
Target sequence (P80244 whole entry, looked up): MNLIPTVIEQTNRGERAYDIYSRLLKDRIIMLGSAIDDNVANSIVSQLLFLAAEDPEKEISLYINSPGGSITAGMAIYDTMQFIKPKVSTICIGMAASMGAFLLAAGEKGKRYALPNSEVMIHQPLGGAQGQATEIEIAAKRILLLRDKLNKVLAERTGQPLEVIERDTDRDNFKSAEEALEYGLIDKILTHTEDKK
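ClpP 10 microg/mL final, pH 8 Tris/KCl buffer with BSA, glycerol, Tween-20; compound pinned in; FRET-FV substrate; RT 20 min; Ex320/Em430; ΔFRET vs ADEP 5.8 microM, DMSO, no enzyme.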
gsp antagonist: gsp mutant antagonism; gsp-mutant cells, cAMP HTRF, 30 min; control for the full effect not named in the record; Potency, µM (top dose mostly 76.9 µM), for inactives: at the top dose activity change, negative = inhibition, usual class: inhibitors; 340,000 tested, 0.4% active; AID 624288; active = falling curve of any shape with a large fitted effect; inconclusive = falling curve, mostly with a smaller effect; inactive = flat or rising curve; cell line not stated here;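 note: intracellular cAMP measured with PDE inhibitor Ro 20-1724 present during compound exposure; potency is the fitted concentration of half-maximal effect; % is set by controls: 0 for no effect and ±100 for the full control effect; nearly all actives have a fitted effect of over 65% in size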
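G418-selected cells were plated in DMEM/10% FBS for 16-24 h at 37C, then treated with compounds plus the PDE inhibitor […] (300 uM solution added) for 30 min at 37C. Intracellular cAMP was measured by HTRF after 30 min lysis at room temperature.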
TRPML1 agonist: agonists of human TRPML1 channel; 410,000 tested, 0.12% active; TRPML1-expressing cells, Ca2+ dye fluorescence, FDSS; host cell line not named in the record; reference of the full effect not given here; activation, % (test concentration not listed); Q9GZU1; in the data active = activation above about 50%; inconclusive = about 30% to 50%; inactive = below about 30%; note: 0% is about no effect; the text of the record puts the active cut at 80%
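In this qHTS format, compounds were pin-transferred onto Ca8-dye-loaded TRPML1-DL cells induced with Tet overnight, and intracellular Ca2+ fluorescence was recorded kinetically for 110 s after a 10 s baseline. A subsequent 4uM final 54-4 (EC80) addition followed by a second 110 s read served as the antagonist phase.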
Active calls of the source: *; ? = inconclusive; / = not tested or not shown; [ ] = another dose, or the depositor's remark. Rows were taken by chance, and some 2.1% of all compounds hit somewhere here.

#	canonical_smiles	TRPML1 blocker	Menin-MLL FL inh	gsp agonist	ClpP mod	gsp antagonist	TRPML1 agonist
1	CCOc1ccc(NC(=O)c2c(N)n(C)c(=O)[nH]c2=O)cc1	6	/	/	-0.8%	5%	-0.1
2	CC(C(=O)NC1CC1)c1ncc(C(F)(F)F)cc1Cl (stereo not drawn)	1	2.4	5%[15.4 µM]	/	20%	-0.6
3	O=C(O)CN1C(=O)/C(=C\c2cc(Br)ccc2OCc2ccc([N+](=O)[O-])cc2)SC1=S	/	0.7	-11%	3.3%	-14%	/
4	C=CCn1c(SCC(=O)Nc2nnc(CC)s2)nnc1-c1cccnc1	-7	4.9	9%	-0.8%	-1%	0.8
5	COC(=O)C1=C(C(=O)OC)[C@]2([C@H]3CCCCN[C@@H](Cc4ccccc4)C(=O)N3Cc3ccccc3)C=C[C@H]1O2	55	/	-2%	-0.1%	-3%	-0.1
6	CN1CCN(CCC(=O)Nc2cccc(F)c2)CC1	-11	3.3	9%	0.8%	16%	-0.2
7	C=CCN(c1ccccc1Cl)S(=O)(=O)c1cc(C(=O)N2CCCC2)ccc1Cl	3	1.5	6%	-12%	-27%	-0.6
8	O=C(Nc1ccc(-c2cn3cccnc3n2)cc1)c1ccccc1F	-13	/	/	4.6%	/	0.9
9	CC(=O)OC(COc1cccc(C)c1)Cn1cnc2ccccc21 (stereo not drawn)	64	2.7	-6%[15.4 µM]	/	-6%	2.6
10	COc1cccc(CNC(=O)C2CCN(S(=O)(=O)N3CCC4(CC3)OCCO4)CC2)c1	-7	-0.8	-3%[15.4 µM]	-4.2%	7%	0.6
11	Cc1ccccc1OCCCC(=O)Nc1nncs1	-17	-1.0	-67%[inhibitor]	-0.1%	7%	1.5
12	COc1cccc(C(=O)N2CCC(CCC(=O)Nc3cccc(C)c3)CC2)c1	-10	-0.1	-90%[inhibitor]	0.4%	-18%	2.2
13	CC(C)N(C(=O)CSc1nnc(NC2CC2)s1)c1ccccc1	1	/	10%	-0.1%	15%	-1.0
14	COc1ccccc1NC(=O)c1cc(Br)ccc1Cl	0	0.5	21%[15.4 µM]	/	-23%	1.8
15	CCN(CC)CCOc1nc(C)nc2c1oc1ccccc12	-2	-0.2	-48%[inhibitor]	-2.7%	4%	0.3
16	CC(C)C[C@H](NC(=O)OC(C)(C)C)c1nnc(SCC(=O)Nc2ccc(Br)cc2)o1	3	3.9	-33%[inhibitor]	3.6%	-31%	2.9
17	O=C(Nc1ccc(S(=O)(=O)NCc2cccnc2)cc1)c1ccccc1Cl	8	5.1	23%	-1.8%	8%	0.9
18	CCc1ccccc1NC(=O)CN(C)C(=O)COc1ccc(C)nc1[N+](=O)[O-]	6	1.0	7%	-2.1%	-4%	0.7
19	COc1ccc(OC)c(NC(=O)C2CCCCC2)c1	8	0.5	?	-3.1%	7%	1.1
20	CCN(C(=O)c1cccc(S(=O)(=O)N(C)C)c1)C12CC3CC(CC(C3)C1)C2	66	-3.3	-28%	/	?	1.9
21	COc1cc(C(=O)OCC(=O)c2cc(C)n(CC3CCCO3)c2C)ccc1OCC(=O)N1CCOCC1 (stereo not drawn)	34	/	-7%[15.4 µM]	/	-25%	1.1
22	O=C(COc1ccc(Cl)cc1Cl)N(c1ccccn1)C1CCCCC1	14	0.9	12%[15.4 µM]	0.6%	-7%	7.9
23	O=C(Cn1ncc(Cl)c(Cl)c1=O)NC1CCS(=O)(=O)C1 (stereo not drawn)	/	-0.8	?	0.1%	0%	/
24	Cn1nnnc1SCC(=O)NCc1cccs1	-2	2.2	?	-1.3%	15%	0.1
25	CN1CCC/C1=C/C=C1\SC(=S)NC1=O	-18	?	-3%	-20%	-16%	58*
26	O=C(OCc1ccccc1)N1C=CC2CC1c1c(Cl)cccc12 (stereo not drawn)	2	/	/	-1.3%	-4%	1.6
27	O=C(CN1CCN(C/C=C/c2ccccc2)CC1)NC(=O)NC1CCCCC1	-18	3.7	-10%[15.4 µM]	/	17%	0.2
28	COc1ccc(CNC(=O)c2ccc3[nH]c(C)c(C)c3c2)c(OC)c1	-18	/	/	-13%	/	-0.2
29	CC(NC(=O)c1ccccc1Cl)C1COc2ccccc2O1 (stereo not drawn)	31	-1.8	-17%	-1.4%	-6%	-0.2
30	O=C(NNC(=O)c1ccccc1-n1cccc1)c1ccc(Cl)cc1Cl	10	1.5	3%	-1.9%	3%	-0.6
31	O=C(Nc1ccccc1Br)C(=O)N1CCCC1	5	-1.6	20%	2.0%	22%	1.7
32	Cc1ccc(Cl)cc1N1CCN(C(=O)c2ccc3nc[nH]c3c2)CC1	47	6.6	3%	0.5%	-11%	3.7
33	Cn1c(=O)c2c(nc(OCC3COC(C)(C)O3)n2Cc2ccccc2F)n(C)c1=O (stereo not drawn)	22	2.4	-7%	0.8%	3%	-1.0
34	Cc1ccc(C(=O)Nc2ncc([N+](=O)[O-])s2)cc1	0	10	7%	-4.1%	25µM*	0.0
35	O=C(CSc1nnc(-c2ccc(Br)cc2)o1)N1CCN(C(=O)c2ccco2)CC1	-13	0.0	3%	-0.5%	-19%	5.6
36	CC1Cc2cc(S(=O)(=O)CCC(=O)NCc3ccccc3Cl)ccc2N1C(=O)C1CC1 (stereo not drawn)	21	/	/	-0.6%	/	1.3
37	CCN1CCC(=NNC(=O)c2ccc(C)c([N+](=O)[O-])c2)CC1	5	0.1	27%	0.3%	5%	-0.7
38	COC(=O)c1ccc(S(=O)(=O)N2CCc3ccccc32)cc1	25	-1.6	-59%[inhibitor]	/	-8%	2.1
39	CCOC(=O)C(=CNNc1c(C)csc1C(=O)OC)C(=O)OCC	4	-0.2	12%	0.9%	-19%	5.8
40	O=C(NNC(=O)c1ccco1)c1ccccc1	1	-0.6	2%	-2.0%	9%	-0.3
41	COc1cccc(OC)c1CN(C)C(=O)c1cnccc1C(F)(F)F	-2	4.1	-1%[15.4 µM]	/	10%	-0.3
42	O=C(NNC(=O)c1sccc1-n1cccc1)Nc1ccccc1	4	-0.2	-11%[15.4 µM]	/	/	-0.8
43	CCCc1nnc(NC(=O)c2cc(=O)c3cc(Cl)ccc3o2)s1	3	/	/	0.8%	/	0.9
44	O=S(=O)(NCC(c1ccc2c(c1)OCO2)N1CCOCC1)c1ccc(F)cc1 (stereo not drawn)	8	/	-1%[15.4 µM]	/	1%	-0.7
45	Cc1ccc(C2CC(=O)N(c3ccc(F)cc3)C3=C2C(=O)CCC3)cc1 (stereo not drawn)	8	-1.2	0%	3.6%	11%	0.1
46	CCc1cc2c(=O)n(CCCOC)c(SCC(=O)Nc3oc(C)c4c(C)n[nH]c(=O)c34)nc2s1	-11	/	11%[15.4 µM]	/	-6%	0.9
47	O=C(O)CC(NS(=O)(=O)c1ccc(Cl)s1)c1ccccc1 (stereo not drawn)	-20	/	/	-4.2%	/	-0.5
48	Cc1nn(C)cc1C(C)NC(=O)c1cc(COc2c(F)cccc2F)on1 (stereo not drawn)	-1	-5.7	-43%[inhibitor]	-0.4%	3%	2.0
49	CCn1cnc2cc(NCc3cccs3)ccc21	6	-4.5	-40%[inhibitor]	?	-5%	-0.1
50	Cc1csc(NC(=O)CS(=O)(=O)Cc2ccccc2)n1	-4	-0.2	-1%	/	2%	-0.6
51	NC1=NC(=O)/C(=C/c2ccc(OCC(=O)O)cc2)S1	/	17	-16%	-2.3%	4%	/
52	CC(C)C[C@@H](CN)NC(=O)c1nc[nH]c1C(=O)N[C@@H](Cc1ccccc1)C(=O)CNC[C@H](C)NC(=O)c1nc[nH]c1C(=O)N[C@@H](CC(C)C)C(=O)O	6	/	/	1.3%	1%	-0.7
53	Cc1cc(NC(=O)CSCC(=O)Nc2nc3ccc(F)cc3s2)no1	-15	/	34%	-2.2%	-3%	0.2
54	O=C(O)c1cc(NS(=O)(=O)c2ccc(N3CCCCC3)c([N+](=O)[O-])c2)cc(C(=O)O)c1	-10	4.5	22%	-2.7%	1%	-0.3
55	CCC(C)Sc1ccc(-c2nc3ccc(Cl)cn3c2NCc2ccccc2)cc1 (stereo not drawn)	15	/	?	?	-1%	-0.3
56	CCn1nc(C)c(NC(=O)CC23CC4CC(CC(C4)C2)C3)c1C	-6	2.6	19%[15.4 µM]	-0.5%	-3%	1.2
57	Cc1ccc(/C=N/NC(=O)c2ccc3c(c2)OCCO3)s1	-13	-0.3	3%[15.4 µM]	/	2%	1.3
58	NS(=O)(=O)c1ccc(CCNC(=O)C(=O)C2C(=O)Nc3ccccc32)cc1 (stereo not drawn)	29	?	-8%[15.4 µM]	/	-19%	0.6
59	Cc1ccc(C(=O)N[C@H](C(=O)OCc2nnc(-c3ccccc3)o2)C(C)C)cc1	1	1.3	-7%[15.4 µM]	/	-4%	0.0
60	CC(C)c1cc(-c2nc(-c3ccc(Cl)cc3)no2)n[nH]1	2	/	/	-1.8%	/	-0.8

Other results.
#	canonical_smiles	TRPML1 blocker	Menin-MLL FL inh	gsp agonist	ClpP mod	gsp antagonist	TRPML1 agonist
61	COc1ccc(CNC(=O)C2(c3cccs3)CCOCC2)cc1	-11	/	/	1.8%	/	-0.6
62	O=C(NCc1ccccn1)c1cc(-c2ccccc2)nc2ccccc12	-10	3.1	-10%	-0.9%	14%	0.4
63	COc1ccc(N/C=C/C(=O)c2ccc3c(c2)OCO3)cc1OC	1	3.7	11%	0.4%	-6%	0.6
64	COc1cc([N+](=O)[O-])ccc1NC(=O)CN(C)C	9	0.3	-50%[inhibitor]	0.3%	6%	-0.7
65	CC1(C(=O)NS(=O)(=O)c2cccc(C#N)c2)CCN1C(=O)CC1CCCCC1 (stereo not drawn)	4	/	/	-1.3%	/	2.8
66	CC1CCN(C(=O)C2CC(c3ccc(F)cc3)=NO2)CC1 (stereo not drawn)	30	3.5	7%	-1.6%	0%	-0.2
67	Cc1ccc2nsnc2c1S(=O)(=O)NCc1cccnc1	-6	2.8	-5%	0.7%	6%	-0.5
68	COc1cccc(CN2CCN(C3CCN(c4ccccc4F)CC3)CC2CCO)c1 (stereo not drawn)	-11	-1.6	4%	/	-5%	0.1
69	Fc1ccccc1OCCCCSc1ncccn1	15	-2.2	-11%	-1.8%	-5%	0.0
70	CCOC(=O)N1CCC(N(CCN(C)C)C(=S)Nc2ccc(Oc3ccccc3)cc2)CC1	19	-0.4	22%[15.4 µM]	/	-4%	0.0
71	CCCCN(C(=O)Cn1nnc2ccccc21)C(C(=O)NCCOC)c1ccc(OC)cc1OC (stereo not drawn)	9	-1.5	-25%	1.5%	-5%	-0.4
72	CCC(=O)N1c2ccc(S(=O)(=O)N(CCO)Cc3ccccc3)cc2CC1C (stereo not drawn)	-3	4.4	11%	-0.2%	?	0.7
